# Source: PubChem
# VDR inh: Inhibitors of the vitamin D receptor (VDR): qHTS; VDR-SRC2-3 peptide fluorescence polarization, 2 h; Vitamin D3 receptor (Homo sapiens), P11473; Potency, µM, for inactives: max response, negative = inhibition, usual class: inhibitors; AID 504847, 2011; 400,000 compounds, 0.93% hits; active = well fitted inhibition curve with a large enough effect; inconclusive = small, poorly fitted or top-dose-only effect, or another doubt; inactive = no such curve, though single readings can be large or run the other way; also: series mostly up to about 120 µM
# Target sequence (P11473 whole entry, looked up): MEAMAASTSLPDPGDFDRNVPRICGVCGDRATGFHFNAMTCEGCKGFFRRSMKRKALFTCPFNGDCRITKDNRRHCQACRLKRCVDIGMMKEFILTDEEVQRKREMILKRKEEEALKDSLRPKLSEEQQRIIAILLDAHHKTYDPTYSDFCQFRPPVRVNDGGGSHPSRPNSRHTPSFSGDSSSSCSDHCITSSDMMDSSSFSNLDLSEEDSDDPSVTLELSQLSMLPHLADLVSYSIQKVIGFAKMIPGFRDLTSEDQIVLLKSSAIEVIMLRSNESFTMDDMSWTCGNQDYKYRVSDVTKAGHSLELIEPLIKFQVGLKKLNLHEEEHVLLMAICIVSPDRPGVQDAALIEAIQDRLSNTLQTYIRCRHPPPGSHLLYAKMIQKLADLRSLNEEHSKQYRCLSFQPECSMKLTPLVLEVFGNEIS
#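 Inhibition of the VDR/SRC2-3 peptide interaction is quantified by fluorescence polarization. Compounds (23 nl, pintool) incubate with the reagents for 2 hours at ambient room temperature.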
# * = called active by the depositor; ? = inconclusive. % is scaled to controls: 0 for no effect and ±100 for the full control effect; potency is read from the fitted curve at half-maximal effect. Not all compounds are listed, so the mix of outcomes need not match the whole.
compound	VDR inh
CCN(C(=O)CSc1cccc[n+]1[O-])C1CCCCC1	11%
CC1CN(C(=O)c2cc3ccccc3cc2O)CC(C)O1 (stereo unspecified)	-7%
CCOc1ccc(-c2cnc3ccccc3n2)cc1	-5%
Cc1ccccc1OCC(=O)Nc1ccc2nc(SCCOc3ccccc3)sc2c1	-1%
COc1ccc2nc(C)cc(Nc3ccc(Cl)c(Cl)c3)c2c1	16%
Cc1ccccc1OCCSc1nc(C)c(Cc2ccccc2)c(=O)[nH]1	29%
COC(=O)C1=C(N)OC2=C(C(=O)CC(C)(C)C2)C1c1cccnc1 (stereo unspecified)	-29%
O=C(CNC(=O)c1sc2ccccc2c1Cl)NCc1ccc(F)cc1	-8%
CCNC(=S)Nc1cccc(S(=O)(=O)Nc2ccccc2OC)c1	-2%
COc1cc(/C=C/C(=O)OCC(=O)NC(=O)NC(C)C)cc(OC)c1OC	26%
CC1(C)c2ccccc2C(=O)c2ccccc21	-4%
COc1cnc(SC(C)C)[nH]c1=O	5%

# Molecules above with a Cl atom:
compound	VDR inh
COc1ccc2nc(C)cc(Nc3ccc(Cl)c(Cl)c3)c2c1	16%
O=C(CNC(=O)c1sc2ccccc2c1Cl)NCc1ccc(F)cc1	-8%

# (further entries)
compound	VDR inh
CC(C)C(=O)NNC(=O)c1ccccn1	10%
Cc1ccc(S(=O)(=O)N(C)C)cc1NC(=O)C(C)OC(=O)C1CCC1 (stereo unspecified)	-8%
Cc1cccc(C(=O)NC(C(=O)Nc2ccccc2N2CCOCC2)C(C)C)c1 (stereo unspecified)	-7%
O=C(CCS(=O)(=O)c1ccc(Br)cc1)Nc1ccc(Br)cc1F	10%
N#C/C(=C\C=C\c1ccccc1[N+](=O)[O-])C(=O)NC1CCCCC1	19%
CCC(c1ccccc1)c1nc(-c2cccnc2)no1 (stereo unspecified)	-15%
CCN(CC)c1ccc2c(O)cc(=O)oc2c1	-13%
COc1ccc(OCC(=O)Nc2ccc(N3CCN(C(=O)c4ccco4)CC3)cc2)cc1	3%
CCN(CC)S(=O)(=O)c1ccc2c(c1)N(CC(=O)NCCCN1CC(C)CC(C)C1)C(=O)CO2 (stereo unspecified)	-18%
O=C(NCc1cccc(Cl)c1)C(=O)Nc1ccc2nc3n(c(=O)c2c1)CCCCC3	1%
CCOC(=O)c1c(C)[nH]c(C(=O)CSc2nnnn2-c2ccccc2)c1C	3%
c1coc(CN(Cc2cccs2)Cc2nnnn2C2CCCCC2)c1	-17%
Cn1cnnc1SCC(=O)Nc1ccc(N2CCOCC2)cc1	17%
Cc1cc(-c2nnc(CCC(=O)N(C)C(C)c3cccs3)o2)no1 (stereo unspecified)	1%
Clc1ccc(-n2nnnc2-c2ccccc2)cc1Cl	-1%
O=C(Nc1ccc2c(c1)OCO2)c1cccc(Cl)c1	-3%
Cc1c(C(=O)c2ccc([N+](=O)[O-])cc2)c(=O)n(C)c(=O)n1C	-15%
CC(C(=O)N1CCCc2ccccc21)N1CCN(S(=O)(=O)c2ccccc2F)CC1 (stereo unspecified)	-14%
CCc1c(C)nc2nncn2c1NCc1ccc(OC)cc1	12%
CCOc1ccccc1NC(=O)C1CCN(S(=O)(=O)c2ccc3[nH]c4c(c3c2)CCCCC4)CC1	12%
CCCCN1CCCC1C(=O)Nc1c(C)cc(C)cc1C (stereo unspecified)	0%
O=C(Nc1ccccc1)c1ccn[nH]1	-10%
Cc1ccc(-n2c(SCC(=O)N3CCc4ccccc43)nc3c([nH]c4ccccc43)c2=O)cc1	3%
Cc1ccc(N(Cc2cc3cc(C)ccc3[nH]c2=O)S(=O)(=O)c2ccccc2)cc1	-15%
Brc1ccc(N=C/C=C/C=C/Nc2ccc(Br)cc2)cc1	-2%
COc1ccc2c(c1)N(C)C(=O)CC(c1ccccc1)=N2	1%
C[C@](Cc1ccc(O)c(O)c1)(NN)C(=O)O	3%
Cc1cccc(N(C(=O)CNC(=O)c2cccs2)C(C(=O)NC2CCCC2)c2ccncc2)c1 (stereo unspecified)	-4%
CC12CN3CC(C)(CN(C1)C3c1ccc3c(c1)OCO3)C2=O (stereo unspecified)	-6%
CC(NC(=O)C1CCN(S(=O)(=O)N2CCCCCC2)CC1)c1ccccc1 (stereo unspecified)	16%
CCCOc1cccc(C2/C(=C(/O)c3ccc4c(c3)CC(C)O4)C(=O)C(=O)N2CCN2CCOCC2)c1 (stereo unspecified)	-1%
Nc1nc2nc(-c3cccs3)cc(C(F)(F)F)n2n1	-26%
CCOc1ccccc1NC(=O)C1CCCN1S(=O)(=O)c1ccccc1C(F)(F)F (stereo unspecified)	8%
Nc1nc(SCc2nc3scc(-c4cccs4)c3c(=O)[nH]2)n[nH]1	-13%
CCN1CCCC1CNC(=O)C(=O)NCCc1ccc(OC)c(OC)c1 (stereo unspecified)	11%
COc1ccc(NC(=O)c2cc(-c3ccco3)nc3ccccc23)cn1	?
O=C(Cn1nc2c(cc1=O)CCCC2)Nc1ccc(F)cc1F	13%
COc1ccccc1NC(=O)c1csc2c1CCCC2	11%
COc1ccccc1NS(=O)(=O)c1ccc2oc(SCC(C)=O)nc2c1	-17%
O=C(COC(=O)CNC(=O)c1ccc(Cl)c([N+](=O)[O-])c1)NNC(=O)c1ccccc1F	-5%
N#Cc1cncc(-c2ccc3c(c2)OCCOCCOCCOCCOCCO3)n1	2%
CCN(CC)c1ccc(C(=O)N/N=C(\C)c2cccc(OC)c2)cc1	1%
CCOc1ncccc1C(=O)OCC(=O)N1CCN(S(=O)(=O)c2ccc(Cl)cc2)CC1	-1%
Cc1ccc(N(C(=O)CCl)C(C(=O)NC2CCCCC2)c2cccnc2)cc1C (stereo unspecified)	-43%
COc1ccc(OC)c(Nc2nc(NCCC(C)C)nc(N)c2[N+](=O)[O-])c1	-11%
CC(=O)Nc1ccc(OCC(O)CN2CCN(c3cccc(Cl)c3)CC2)cc1 (stereo unspecified)	-3%
O=C(c1ccc(COc2ccccc2Br)cc1)N1CCCCCC1	-4%
Cc1ccc(Oc2cnc3ccccc3n2)cc1	2%

# Continued:
SMILES | VDR inh
O=C(CCN1C(=O)/C(=C\c2ccccc2)SC1=S)NCCCN1CCOCC1 | -20%
CCOc1ccc(CCNC(=O)C2CC=CCC2C(=O)OC(C)C)cc1OCC (stereo unspecified) | 0%
Cc1scc(C(=O)N/N=C/c2ccc(Cl)s2)c1C | 6%
N/C(Cc1ccc(Cl)c(Cl)c1)=N\OC(=O)c1cccs1 | -16%
c1ccc2c(c1)c1c(c3ccccc32)CN2CCCC2C1 (stereo unspecified) | -25%
Cc1cc(Nc2ccccc2)n(C(=O)c2ccccc2)n1 | -12%
c1ccc(Cc2nnc3sc(-c4cccnc4)nn23)cc1 | -13%
O=S(=O)(Cc1cc(-c2ccccc2Cl)no1)c1ccccc1 | -3%
Cc1ccc(NC(=O)CNc2ccc(OC(C)C)cc2)c(C)c1 | 4%
CS(=O)(=O)N1CCN(C(=O)c2ccc3c(c2)OCCO3)CC1 | -5%
CN(C)CCCNC(=O)c1ccccc1Oc1ccccc1 | 2%
NC1=NC(=O)/C(=C/c2ccc(-c3ccc(S(N)(=O)=O)cc3)o2)S1 | -6%
CC1CCCC(NC(=O)COC(=O)c2ccc(Cl)nc2)C1C (stereo unspecified) | 4%
CCOc1cc(/C=C(\C#N)C(=O)NCc2cccnc2)ccc1O | -9%
CCc1ccc(C(=O)/C=C/Nc2ccc(S(=O)(=O)Nc3onc(C)c3C)cc2)cc1 | -15%
Cc1ccc(NC(=O)C2COc3ccccc3O2)cc1 (stereo unspecified) | -3%
COCC(C)NC(C(=O)Nc1ccc(Cl)c([N+](=O)[O-])c1)c1ccccc1 (stereo unspecified) | -10%
Cc1ccc(CN2CC(=O)N3[C@H]4c5ccccc5OC[C@@H]4[C@H](c4ccccc4)[C@]3(C)C2=O)cc1 | 2%
Cc1ccc(C(=O)N2CCCC(N3CCN(c4cccc(C(F)(F)F)c4)CC3)C2)s1 (stereo unspecified) | ?
Cc1ccc(CN2CCC(c3cc(-c4cccs4)n[nH]3)CC2)cc1 | 5%
CCOc1ccc2nc(N(CCCN(C)C)C(=O)c3ccc(C(=O)c4ccccc4)cc3)sc2c1 | 18%
COc1cccc(C2(c3cccc(OC)c3)CC2C(=O)Nc2cccc3ccccc23)c1 (stereo unspecified) | 3%
COc1cc2c(cc1OC)C(C)N(C(=O)c1ccc(Cl)c(S(=O)(=O)N3CCCCC3)c1)CC2 (stereo unspecified) | -20%
COc1ccc(C)cc1S(=O)(=O)Nc1cc2c3c(c1)CCN3C(=O)CC2 | 1%
c1cnc2ccc(C(c3nnnn3C3CCCC3)N3CCN4CCCC4C3)cc2c1 (stereo unspecified) | 20%
CCn1nnnc1NC(=O)c1ccc2ccccc2c1 | 5%
CCn1c(COc2ccccc2C)nnc1SCC(=O)O | -3%
CCc1cccc(C)c1NC(=O)CN1C(=O)NC(Cc2ccccc2)C1=O (stereo unspecified) | -1%
COc1ccc(C(c2c(NC(C)=O)sc3c2CCCC3)N2CCN(CCO)CC2)cc1OC (stereo unspecified) | 7%
CCC(=O)OC1(C)C(=O)C=C2C=C(/C=C/COC)OC=C2C1=O (stereo unspecified) | -4%

# Some of the entries above in another layout:
> COc1ccc(C)cc1S(=O)(=O)Nc1cc2c3c(c1)CCN3C(=O)CC2
  VDR inh: 1%
> c1cnc2ccc(C(c3nnnn3C3CCCC3)N3CCN4CCCC4C3)cc2c1 (stereo unspecified)
  VDR inh: 20%
> CCn1nnnc1NC(=O)c1ccc2ccccc2c1
  VDR inh: 5%
> CCc1cccc(C)c1NC(=O)CN1C(=O)NC(Cc2ccccc2)C1=O (stereo unspecified)
  VDR inh: -1%

# (list continues)
SMILES | VDR inh
O=C(NCC(=O)N(c1ccc(Cl)cc1)C(C(=O)NC1CCCC1)c1cccnc1)c1ccco1 (stereo unspecified) | -6%
O=C(O)c1ccc(S(=O)(=O)Nc2ccc3c(c2)OCCO3)cc1 | -5%
FC(F)(F)c1ccc2c(c1)N1CCCC1CN2 (stereo unspecified) | 14%
CN(C)S(=O)(=O)c1cccc(NC(=O)CC23CC4CC(CC(C4)C2)C3)c1 | 9%
COc1cccc(CN2CCN(Cc3cccc4nonc34)CC2CCO)c1 (stereo unspecified) | -28%
COc1cc(/C=N/Nc2ccccc2)ccc1O | 6%
O=C(NCc1cn2ccsc2n1)c1cccs1 | -9%
CC(=O)NNC(=S)Nc1cccc(F)c1 | -7%
COCCNC(=S)N1CCC(Cc2ccccc2)CC1 | -22%
COC(=O)c1[nH]c2cc(OC)ccc2c1NC(=O)CN1CCC(C(N)=O)(N2CCCCC2)CC1 | 7%
O=S1(=O)N=C(N(CCO)/N=C/c2ccc(Br)cc2)c2ccccc21 | -18%
COc1cc(N)c(Cl)cc1Cl | 2%
CCOC(=O)CN(C(=O)COc1nc(-c2ccccc2)cc(C)c1C#N)c1ccc(F)cc1 | -7%
CCCOc1ccc(C(=O)NCC(c2cccs2)N(C)C)cc1OC (stereo unspecified) | -25%
CCOc1ccc(N(CC)S(=O)(=O)N2CCCC(C(=O)Nc3ccc(NC(C)=O)cc3)C2)cc1 (stereo unspecified) | 20%
O=C(Nc1nccs1)c1cccc2ccccc12 | 3%
COCCn1c(=O)[nH]c2cc(C(=O)Nc3cccc(F)c3)ccc2c1=O | 9%
O=C(CN1C(=O)NC2(CCCCCC2)C1=O)Nc1ccc(Br)cc1Br | -2%
CCOc1ccc(CN2CCNC(=O)C2CC(=O)NCc2cc(C)n(C)n2)cc1 (stereo unspecified) | -4%
Cc1ccc(NC(=O)CC2(CC(=O)O)CCCC2)c(C)c1 | -4%
O=C1CCC(=O)N1c1ccccc1 | -3%
COCCn1cnc2c1c(=O)n(CC#N)c(=O)n2Cc1ccccc1 | 1%
Cc1noc(C)c1-c1cc(N(C)Cc2ccco2)ncn1 | 32µM*
O=C(Nc1ccc(O)cc1)c1ccc(NC(=O)c2ccco2)cc1 | 5%
Cc1oc(-c2cccs2)nc1CN1CCC(C(=O)N2CCCC2)CC1 | -11%
CCO[C@@H]1OC(C(=O)N2CCOCC2)=C[C@H](c2ccc(C(F)(F)F)cc2)[C@H]1CCCO | ?
COc1cc2c(cc1OC)n(CC(=O)NC1CCCCCC1)n1c(C)cc(=O)nc21 | -8%
C=C1CCN(C(CC(C)C)C(=O)NN2CCOCC2)S(=O)(=O)c2ccccc21 (stereo unspecified) | -16%
COc1ccc(CN(CC2CCC(C(=O)O)CC2)C(=S)Nc2ccccc2C)cc1 (stereo unspecified) | 3%
Cc1cc(C)c2c(N)c(C(=O)N/N=C/c3cccnc3)sc2n1 | 10%

# Three of the entries above in order of their number in VDR inh, falling:
SMILES	VDR inh
FC(F)(F)c1ccc2c(c1)N1CCCC1CN2 (stereo unspecified)	14%
COc1cccc(C2(c3cccc(OC)c3)CC2C(=O)Nc2cccc3ccccc23)c1 (stereo unspecified)	3%
Nc1nc2nc(-c3cccs3)cc(C(F)(F)F)n2n1	-26%

# Continued.
SMILES | VDR inh
Cc1cc(NC(=O)Nc2c[nH]c(=O)[nH]c2=O)ccc1Br | 3%
COc1cc(Cl)ccc1OCc1cc(C(=O)N2CCN(C)CC2)no1 | 3%
CC(=O)c1ccc(C)cc1OC(=O)c1cccc(F)c1 | 5%
Fc1cccc(-c2ncc(-c3ccccc3)o2)c1 | -4%
Cn1ccnc1COc1ccc(/C=N/O)cc1 | 6%
COc1ccc(/C=N/Nc2nc(C)nc(N)n2)cc1 | 8%
COc1ccc(S(=O)(=O)N2CCCC2)cc1NC(=O)c1ccccc1 | 5%
COc1cc(/C=C2\SC(=O)N(c3ccccc3Cl)C2=O)cc([N+](=O)[O-])c1O | -17%
COc1cccc(CC(=O)N2CCCC(CCC(=O)N3CCN(c4ccccn4)CC3)C2)c1 (stereo unspecified) | -20%
Cc1cc(C(=O)COC(=O)c2cccnc2Cl)c(C)n1C | -9%
CCCCOc1ccc(C(=O)N2CCC(C)CC2)cc1 | 4%
CN(CC(=O)N1CCCCCC1)S(=O)(=O)c1ccc(Br)cc1 | 1%
